Assay outcomes: PubChem, several laboratories
Ecoli rRNA inh: selective bacterial rRNA inhibition in E. coli; E. coli WT GFP vs humanized-ribosome RFP mutants, fluorescence, 24 h; active compounds read low; DMSO median 0, no signal -100; AID 720706; GFP signal change (wild-type ribosome), % (no concentration beside the values); hit rate 1.6% among 350,000;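 active = significant combined selectivity score with lowered wild-type GFP, culture density cut under 30%, mutant RFP and density less affected; inactive = any of these conditions unmet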; also: one replicate is shown; some compounds called inactive have numbers as strong as hits
T cruzi inh: blocks replication of Trypanosoma cruzi. T. cruzi beta-gal in NIH3T3, luminescence, 90 h. inhibition, % (concentration not given with the values). hit rate 1.4% among 300,000. AID 1885;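 active = mean inhibition across valid replicates above about 55%, limit read from the data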;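 also: signal also drops with host cell toxicity which is not excluded here; 0% = plate median of DMSO wells and 100% = zero luminescence signal; higher percent means less beta-gal luminescence so fewer parasites; stock transfer was 50 nL into about 50 µL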
Beta apoptosis: blocks beta cell apoptosis; INS-1E cytokine-induced death, ATP luminescence, 48 h; percent of positive-control rescue, neutral wells zero; protection from apoptosis, % (test concentration not listed); hit rate 0.8% among 300,000;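 active = all replicates at 75% or more, or half of them and the mean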;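 also: 0% = cytokine-treated negative control wells and 100% = positive control rescue; higher means more ATP so stronger rescue from cytokine killing; wells of about 40 µL received 100 nL stock; the first replicate is given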
MLL AF4-AF9 inh: MLL-AF4/AF9 protein interaction inhibition; AlphaScreen, biotin-AF4 peptide binding to FLAG-AF9; inhibition, % at 10 µM; hit rate 0.47% among 350,000;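 active = every replicate reaching a set inhibition limit, whatever the replicate mean, cut at about 25% in these data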;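 also: 0% = plate neutral control median and 100% = total signal loss; the record names both 10 and 1 µM as test concentration; the first replicate is given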
UCH37 inh: inhibitors of human deubiquitinating enzyme UCH37; AID 588478; purified proteasome/UCH37, Ub-AMC cleavage fluorescence; Q9Y5K5; inhibition, % (test concentration not listed); hit rate 0.33% among 330,000;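 active = mean of two replicates above 20%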;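 also: 0% = compound-free wells with enzyme and 100% = wells lacking proteasome; stock transfer was 100 nL into about 20 µL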
Target sequence (Q9Y5K5 whole entry, looked up): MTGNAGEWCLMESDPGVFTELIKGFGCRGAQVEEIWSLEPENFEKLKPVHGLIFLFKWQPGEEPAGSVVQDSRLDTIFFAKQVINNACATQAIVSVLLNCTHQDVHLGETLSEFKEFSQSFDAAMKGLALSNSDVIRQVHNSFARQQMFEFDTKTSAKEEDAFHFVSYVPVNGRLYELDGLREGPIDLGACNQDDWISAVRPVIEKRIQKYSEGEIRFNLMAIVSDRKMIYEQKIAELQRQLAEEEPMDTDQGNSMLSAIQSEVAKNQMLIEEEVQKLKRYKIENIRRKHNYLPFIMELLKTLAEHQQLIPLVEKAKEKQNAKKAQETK
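Signal – fluorescence, ex 355 nm, em 460 nm · System – Proteasome-bound UCH37 · Input – 0.15 nM proteasome as dispensed · Timing – 30 min preincubation with enzyme, 25 min cleavage at room temperature · Read-out basis – percent inhibition of cleavage signal versus uninhibited and no-proteasome wells · Medium – Tris-HCl pH 7.4 with ATP-MgCl2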
Bfl-1 A1 inh: inhibitors of the anti-apoptotic protein A1, read as caspase activation; MEF A1-2A-BIM cells, Caspase-Glo 3/7 luminescence, 3 h; percent of clofoctol response, vehicle zero; caspase activation, % (test concentration not listed); hit rate 0.066% among 330,000;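 active = over half of replicate activation scores above 10%, or exactly half above 10 with the replicate mean above 10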;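 also: wells of about 30 µL received 50 nL stock; many hits fall short of the cut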
E coli growth: blocks Escherichia coli growth. AID 1053175. OD600 absorbance (test concentration not listed). OD600, 23 h; active compounds read low. hit rate 0.21% among 330,000;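 active = OD600 absorbance below the run mean of sample wells minus 3.6 SD, in any replicate, cut at about 0.56 in these data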;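 also: stock transfer was 300 nL into about 60 µL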
FGF22 binding: binders of recombinant human FGF22 by thermal shift; calls only at 9.99 µM; hit rate 1.5% among 340,000; SYPRO orange fluorescence; percent of sucrose octasulfate shift, DMSO zero;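 active = melting point raised past a set limit in the mean and every replicate; three in four hits are not shown here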
Target sequence (Q9HCT0 whole entry, looked up): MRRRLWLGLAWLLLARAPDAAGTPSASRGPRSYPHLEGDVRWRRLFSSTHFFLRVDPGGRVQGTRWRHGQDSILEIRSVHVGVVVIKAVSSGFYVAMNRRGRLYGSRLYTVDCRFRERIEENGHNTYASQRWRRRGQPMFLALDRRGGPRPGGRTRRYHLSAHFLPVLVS
Ecoli rRNA inh OD600: recorded beside Ecoli rRNA inh, whose call it bears; OD600 change, %; measured here: OD600 growth;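 optical density of the mix in the first replicate; 0 = DMSO median and -100 = no signal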
Ecoli rRNA inh RFP: further read-out of Ecoli rRNA inh, marked with its call; RFP signal change, %; measured here: RFP humanized mutant strains;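 first replicate; 0 = DMSO median and -100 = no signal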
* marks the source's active call; other numbers are inactive results; i = inactive; nt = not tested or not shown. Only part of the results is shown; rates above refer to the full screens.

The line under a structure holds: Ecoli rRNA inh	Ecoli rRNA inh OD600	Ecoli rRNA inh RFP	T cruzi inh	Beta apoptosis	MLL AF4-AF9 inh	UCH37 inh	Bfl-1 A1 inh	E coli growth	FGF22 binding
> CNS(=O)(=O)c1ccc(NC(=O)Nc2ccc3c(c2)OCO3)cc1
    -7.0	-2.2	-8.4	18.1	-11.7	-0.2	5.6	-3.6	0.602	i
> COc1ccc(Cn2cc([N+](=O)[O-])nc2C)cc1[N+](=O)[O-]
    nt	nt	nt	2.4	-1.4	-2.7	8.0	0.1	0.69	i
> Cc1ccccc1OCCCn1c(=O)sc2ccccc21
    nt	nt	nt	7.4	2.6	nt	2.8	-0.8	0.737	nt
> COc1ccccc1N1CCN(S(=O)(=O)CCNC(=O)CC2CCCCC2)CC1
    3.8	8.6	2.1	9.1	0.1	-1.8	0.5	-0.5	0.628	i
> Cc1ccc(-n2nc3c(=O)n(C(C)C(=O)NCc4ccco4)nc(C)c3c2C)cc1 (stereo not given)
    -4.7	-7.1	-2.9	-8.6	-0.7	-3.6	0.3	2.7	0.649	i
> CCOC(=O)c1sc(NC(=O)CSc2nnnn2-c2ccccc2)c(C(=O)OCC)c1C
    nt	nt	nt	22.8	4.0	nt	0.1	-0.4	0.737	nt
> CCC(=O)NC(c1ccccc1)c1c(OC(C)=O)ccc2ccccc12 (stereo not given)
    -8.9	-10.6	-4.4	15.2	-0.1	-0.6	-0.2	-0.1	0.659	nt
> OCC1(Cc2cccc(F)c2)CCN(Cc2ccc3cccc(F)c3n2)CC1
    -3.5	-8.4	7.4	27.8	2.0	-0.5	-0.5	0.1	0.671	i
> Cc1ccc(NC(=O)C2CCN(S(C)(=O)=O)CC2)cc1C
    nt	nt	nt	-13.6	nt	nt	1.1	0.2	0.69	nt
> CN(CCNS(=O)(=O)c1ccc2c(c1)oc(=O)n2C)Cc1ccccc1
    3.2	4.2	-3.7	14.7	-0.7	-6.2	-0.6	-1.1	0.739	i
> CCOC(=O)c1cc2sccc2n1CC(=O)Nc1ccc(OC)c(OC)c1
    -7.7	-15.4	3.1	7.9	-4.6	-76.9	2.5	-0.3	0.693	i
> Cc1c(NC(=O)C(C)OC(=O)c2cccs2)c(=O)n(-c2ccccc2)n1C (stereo not given)
    8.8	13.2	1.4	3.6	-7.4	-4.2	0.5	0.2	0.685	i
> CCCn1c(SCC(=O)NCc2ccco2)nc2c1c(=O)n(C)c(=O)n2C
    nt	nt	nt	-9.7	-1.7	nt	1.6	0.3	0.69	nt
> CCOc1ccc2cc(C#N)c(SCC(=O)N3CCOCC3)nc2c1
    -2.2	4.1	-2.2	14.4	5.2	nt	-101.3	-0.2	0.649	nt
> O=C(Nc1ccc2c(c1)OCO2)C1CC(=O)N(c2ccc(F)cc2)C1 (stereo not given)
    8.4	7.6	1.3	-1.7	nt	0.9	-0.5	0.0	0.624	i
> COCCn1c(SCC(=O)N2CCCC2)nnc1-c1ccco1
    9.1	5.5	-0.7	0.7	2.7	28.4*	0.9	0.0	0.659	i
> CCOc1ccc(Br)cc1S(=O)(=O)Nc1ccc(C(=O)Nc2ccccc2OC)cc1
    -0.8	4.4	2.5	15.1	9.4	4.3	1.9	0.2	0.743	i
> c1nc(NC2CCCC2)c2[nH]cnc2n1
    -0.4	-2.0	0.4	-19.8	-4.1	-22.2	2.7	0.0	0.698	i
> O=C(C1CCCN(Cc2ccc(F)cc2)C1)N1CCCCC1 (stereo not given)
    -0.2	9.7	2.8	29.0	-5.2	1.2	0.5	2.1	0.661	i
> Cn1nnnc1SCC(=O)Nc1ccccc1C(=O)NCc1ccccc1
    -5.5	-0.6	-1.0	-10.7	-6.6	-0.4	3.9	-0.1	0.703	i

Overlap with the part before: two compounds, then new ones.
The line under a structure holds: Ecoli rRNA inh	Ecoli rRNA inh OD600	Ecoli rRNA inh RFP	T cruzi inh	Beta apoptosis	MLL AF4-AF9 inh	UCH37 inh	Bfl-1 A1 inh	E coli growth	FGF22 binding
> O=C(C1CCCN(Cc2ccc(F)cc2)C1)N1CCCCC1 (stereo not given)
    -0.2	9.7	2.8	29.0	-5.2	1.2	0.5	2.1	0.661	i
> Cn1nnnc1SCC(=O)Nc1ccccc1C(=O)NCc1ccccc1
    -5.5	-0.6	-1.0	-10.7	-6.6	-0.4	3.9	-0.1	0.703	i
> O=C(NC1CCCC1)C1CC(=O)N(c2ccccc2)C1 (stereo not given)
    0.4	10.6	-0.7	-5.5	nt	-1.2	-1.5	0.4	0.66	i
> Cc1sc(NC(=O)C2CCCC2)c(C#N)c1C
    8.7	4.7	21.8	-5.6	4.8	-6.6	3.3	-0.1	0.626	i
> CCN(CC)C(=O)[C@H]1CC(CC(=O)NCCC2=CCCCC2)C(=O)N2CCc3c([nH]c4ccccc34)[C@]12C (stereo not given in full)
    -28.0	-54.4	7.7	nt	-2.9	2.4	0.4	0.1	0.678	i
> CC(C)(CC(=O)O)CC(=O)N1CCCN(c2nc3ccc(Cl)cc3s2)CC1
    -0.5	-8.3	4.2	-4.3	-1.5	0.6	4.4	0.9	0.654	i
> O=C(c1ccco1)N1CCN(c2ccc(S(=O)(=O)N3CCCC3)cc2)CC1
    nt	nt	nt	10.2	7.4	nt	1.1	-1.3	0.684	nt
> Cc1cc(C)n(CC(O)CN2c3ccccc3Sc3ccccc32)n1 (stereo not given)
    nt	nt	nt	7.5	3.1	nt	-1.0	-0.8	0.712	nt
> COc1cc(/C=C/C(=O)Nc2cccc(S(=O)(=O)NC3=NCCCCC3)c2)ccc1OCC#N
    -5.6	-8.2	1.0	-10.4	1.2	-2.4	4.1	-0.1	0.675	i
> COC(=O)c1nnn(CC(=O)NC(=O)Nc2cccc(C)c2C)c1C(=O)OC
    nt	nt	nt	-11.0	-9.3	nt	2.2	0.5	0.624	nt
> Cn1cc(/C=C/c2cc[n+](C)cc2)c2cc(F)ccc21
    63.7	-66.7	-27.1	48.4	68.7	nt	28.0*	1.1	0.624	nt
> c1ccc2c(c1)CC1(CCCC1)n1nnnc1-2
    nt	nt	nt	6.1	4.8	nt	5.0	0.0	0.672	nt
> COc1ccc(/C=C/C(=O)C(C)(C)C)cc1OC
    3.1	-1.8	0.8	-11.5	-8.3	-2.5	nt	0.2	nt	i
> COC(=O)C1=C(C)N(Cc2ccccc2)C(=NCc2ccc3c(c2)OCO3)N[C@H]1c1ccccc1
    -51.0	-79.3	-15.5	nt	-6.5	11.9	1.5	-1.2	nt	i
> C[C@@H]1O[C@@H](O[C@@H]2[C@@H](O)[C@H](OCCc3ccc(O)c(O)c3)O[C@H](CO)[C@H]2OC(=O)/C=C/c2ccc(O)c(O)c2)[C@H](O)[C@H](O)[C@H]1O
    7.1	10.3	-3.2	nt	3.5	-4.9	0.6	0.6	nt	i
> COc1ccc([N+](=O)[O-])cc1COc1ccc2c(-c3ccccc3)cc(=O)oc2c1
    nt	nt	nt	-14.1	5.4	nt	3.5	-0.2	0.725	nt
> COc1ccccc1-c1noc(-c2ccncc2)n1
    nt	nt	nt	-3.4	15.4	nt	4.5	-6.2	0.673	nt
> CC1Cc2ccccc2N1S(=O)(=O)c1cccc(C(=O)N2Cc3ccccc3CC2C(N)=O)c1 (stereo not given)
    nt	nt	nt	nt	3.7	1.5	5.8	0.2	0.701	i
> Cc1ccccc1Nc1nccc(N(C)C)c1C#N
    9.6	1.8	1.0	-13.0	-3.6	-3.0	3.8	0.0	0.703	i
> COCCNC(=S)Nc1cc2oc3ccccc3c2cc1OC
    6.3	-7.7	-1.0	-16.3	-3.2	0.9	3.9	-0.1	0.699	i
> CCOC(=O)CN1CCC(c2cc(-c3ccc(Cl)cc3)n[nH]2)CC1
    -5.1	-17.1	-0.5	27.7	-3.4	0.5	4.9	0.3	0.654	i
> CC1(C)Cc2cccc(OCC(N)=O)c2O1
    nt	nt	nt	-3.0	-6.0	nt	2.4	-0.2	0.803	nt
> CCC(=O)Nc1ccc(NC(=O)CSc2nnnn2C2CCCC2)cc1C
    nt	nt	nt	6.1	nt	0.9	4.9	nt	0.651	i
> O=C(c1ccccc1)N1CCN(C(=O)N2CCCCC2)CC1
    nt	nt	nt	-0.4	-4.3	nt	2.3	0.2	0.781	nt
> Cc1cc(C(=O)CSc2nnnn2-c2ccccc2)c(C)n1CCc1ccccc1
    nt	nt	nt	13.5	-9.5	nt	3.3	-0.3	0.731	nt
> Cc1cnccc1CNC(=O)CC1C(=O)NCCN1CC(C)(C)C (stereo not given)
    -10.0	-11.9	-1.4	0.8	-3.3	-4.4	-2.7	-0.1	0.645	i
> O=C(Nc1ccnn1C1CCN(C2CCCCC2)CC1)c1cccc(F)c1
    8.8	3.0	2.7	-3.3	nt	2.9	1.8	nt	0.651	i
> CCN1CCCC(OC(=O)c2cc(-c3ccccc3Cl)nc3ccccc23)C1 (stereo not given)
    -15.0	-19.6	-5.3	27.6	5.1	16.7	2.4	-0.3	0.62	i
> Cc1ccc(Sc2ncccc2COC(=O)Nc2ccccc2)cc1
    nt	nt	nt	7.2	8.2	nt	2.0	-0.6	0.734	nt
> O=C(Nc1nccs1)c1cc2sccc2n1Cc1ccc(Cl)cc1
    -1.1	-1.1	-0.4	0.0	-0.6	1.7	-5.5	0.9	0.753	i
> C/C(=N/NC(=O)c1cccs1)c1cccc(N)c1
    nt	nt	nt	-8.1	-3.0	-11.1	nt	-2.7	nt	nt
> CC(NC(=O)CN(c1cccc(C(F)(F)F)c1)S(C)(=O)=O)c1ccccc1 (stereo not given)
    9.7	21.2	-0.1	-5.7	-1.4	3.8	-0.7	-0.3	0.673	i
> CCn1cc(CN2CCN(CCC(C)C)C(CCO)C2)c2ccccc21 (stereo not given)
    1.1	4.2	-2.5	-5.7	nt	0.9	-1.8	0.1	0.678	i
> Cc1cccc(C(=O)NC2CCCc3ccccc32)c1 (stereo not given)
    -23.6	-11.4	-5.1	1.6	-2.1	-1.8	0.7	-0.3	0.655	i
> CCn1nnc(NC(=O)c2cccnc2Cl)n1
    nt	nt	nt	-1.6	-2.1	nt	1.8	-0.2	0.749	nt
